Screening results (PubChem BioAssay)
PKD1 kinase inh: blocks activity of human protein kinase D1 | PKD1 kinase fluorescence polarization assay | inhibition, %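 (about 10 µM by stock and volumes)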 | 200,000 tested, 0.056% active | AID 797;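 active means inhibition of 50% or more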;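 further: controls were vehicle for no effect and a reference inhibitor for full effect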
HSV augment: HSV replication enhancement; HSV replication augmentation in cells, fold increase; maximum fold increase; 220,000 tested, 0.005% active; AID 1956;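 active means peak rise of 1.5-fold or more in the series; inconclusive means self-fluorescent or not available for retest; tested in PC3 cells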;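 further: first round at 10 µM; read as green reporter fluorescence; hits show the peak of a series up to 25 µM; 1 = signal of infected wells without compound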
RGS16-Gao HTS: regulators of human RGS16-Galphao interaction. binding response (% of control), % at 10 µM. O15492+P09471. 220,000 tested, 0.38% active. bead-based flow cytometry RGS16-Galphao binding, fluorescence; actives lie on both sides;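 active means below 25% or above 175%, edge rows of some plates excepted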;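 further: Galphao activated by GDP with aluminum fluoride before binding; 100% = wells without compound and 0% = beads without RGS; some results beyond the cut were filed as inactive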
Target sequence (O15492 whole entry, looked up): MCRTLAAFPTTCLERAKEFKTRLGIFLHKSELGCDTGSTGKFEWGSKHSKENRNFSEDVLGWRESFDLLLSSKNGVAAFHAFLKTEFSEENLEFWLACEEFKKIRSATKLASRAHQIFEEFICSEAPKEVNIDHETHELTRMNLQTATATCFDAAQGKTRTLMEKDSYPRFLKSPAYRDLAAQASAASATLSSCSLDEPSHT
Target sequence (P09471 whole entry, looked up): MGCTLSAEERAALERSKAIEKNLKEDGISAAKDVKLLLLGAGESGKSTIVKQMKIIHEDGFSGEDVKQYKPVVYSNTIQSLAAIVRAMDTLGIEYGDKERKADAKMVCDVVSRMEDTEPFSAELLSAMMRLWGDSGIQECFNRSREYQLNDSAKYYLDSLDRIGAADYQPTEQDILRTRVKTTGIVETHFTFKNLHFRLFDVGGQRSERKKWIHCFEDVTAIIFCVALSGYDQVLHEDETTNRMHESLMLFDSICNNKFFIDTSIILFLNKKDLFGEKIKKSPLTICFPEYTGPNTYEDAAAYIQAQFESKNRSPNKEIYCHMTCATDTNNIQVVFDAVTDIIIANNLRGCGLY
Insulin prom inh: TRM-6 insulin promoter activity inhibition; TRM-6 cells (human fetal islet line), insulin promoter-eGFP reporter, imaging; reporter expression induced with tamoxifen; 130,000 tested, 0.9% active; inhibition, % at 2 µM;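 active means inhibition above the mean plus 3 SD, with well images judged a real hit on visual review, cut at about 60% in these data, passing the limit was not always enough; inconclusive means inhibition over the cutoff but images rejected on review; inactive means inhibition not above the cutoff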
GALR2 agonist: activates the human galanin receptor 2; GALR2-expressing cells, agonist activation read-out; AID 803; activation, %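 (tested at 5 µM)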; 140,000 tested, 0.48% active; O43603;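 active means above mean plus 3 SD of all compounds, about 5% in these data, not always enough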;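 further: 0% = vehicle buffer wells and 100% = reference agonist at full effect; tested in CHO reporter cells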
Target sequence (O43603 whole entry, looked up): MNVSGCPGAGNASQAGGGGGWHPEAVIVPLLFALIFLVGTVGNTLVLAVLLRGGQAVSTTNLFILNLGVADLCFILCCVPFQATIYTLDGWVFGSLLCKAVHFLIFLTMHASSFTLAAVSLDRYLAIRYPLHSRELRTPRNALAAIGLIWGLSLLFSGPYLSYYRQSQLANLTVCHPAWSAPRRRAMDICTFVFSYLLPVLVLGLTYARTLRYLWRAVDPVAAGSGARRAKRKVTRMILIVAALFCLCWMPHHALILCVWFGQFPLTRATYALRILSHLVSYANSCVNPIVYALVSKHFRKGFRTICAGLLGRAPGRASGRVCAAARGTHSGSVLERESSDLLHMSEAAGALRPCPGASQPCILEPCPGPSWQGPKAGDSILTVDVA
Insulin prom inh cell count: further read-out of Insulin prom inh, marked with its call; normalized cell count, %; measured here: cell count, toxicity; reference of the scale not given here;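 cells exposed to compound for 48 h; stained nuclei by imaging scaled within each plate; lower means fewer cells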
HSV augment primary fold: recorded beside HSV augment, whose call it bears; fold increase; compound at 10 µM; measured here: primary screen fold increase 10 uM; tested in PC3 cells;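 GFP signal in the first replicate; 1 = infected wells without compound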
An asterisk follows results filed as active; i = inactive; u = inconclusive; x = no result given. This is a random part of the collection; any-hit rate near 1.3%.

Below each SMILES: HSV augment primary fold	Insulin prom inh cell count	RGS16-Gao HTS	GALR2 agonist	HSV augment	PKD1 kinase inh	Insulin prom inh
COc1ccc(CCN2C(=O)c3[nH]nc(-c4ccccc4O)c3C2c2ccc(C)cc2)cc1OC (configuration not stated)
  0.79	135	103	-0.3	i	-9	29
CCCCC(CC)CNC(=O)C(=O)c1ccccc1NC(C)=O (configuration not stated)
  0.92	x	106	-0.6	i	-8	x
O=C(Oc1ccc(N(Cc2cccs2)C2=NS(=O)(=O)c3ccccc32)cc1)c1ccccc1Cl
  0.96	x	94	-0.9	i	2	x
Cc1cc(NCCC(C)C)n2nc(C)c(-c3ccccc3)c2n1
  0.85	140	102	-0.6	i	3	60
O=C(CSc1nc2nc3c(cc2c(=O)n1-c1ccccc1)CCCC3)Nc1ccccc1
  1.3	116	103	1.7	i	-5	6
CC(=O)/C(N=Nc1cccc(C(F)(F)F)c1)=C(\C)O
  1	x	91	x	i	0	x
COc1ccc(CNC(=O)CCN2C(=O)c3ccncc3C2=O)cc1OC
  0.89	x	89	x	i	x	x
CCCNC(=O)c1ccccc1NC(=O)COc1ccc(OC)cc1
  0.88	x	99	-1.6	i	-2	x
COc1ccc(/C=N/NC(=O)C(C)n2cnc3ccccc3c2=O)cc1 (configuration not stated)
  0.98	88	89	-0.9	i	-3	-7
O=[n+]1cc(-c2ccccc2)n([O-])c2c1CCC2
  0.81	157	101	0.2	i	-2	7
CCOC(=O)c1nn(-c2ccccc2)c2nc(Nc3ccccc3)cc(=O)n12
  0.96	56	100	-1.4	i	-1	18
CCc1ccc(CN2C(=O)c3ccccc3C2C(=O)NCc2cccnc2)cc1 (configuration not stated)
  1.1	160	93	x	i	-5	-3
CCc1ccccc1NC(=S)N(CCN(C)C)C(C)c1cccnc1 (configuration not stated)
  0.87	x	100	x	i	-7	x
CC(=O)Nc1nonc1NC(C)=O
  0.83	106	103	0.8	i	-1	-93
Cc1ccc(Nc2nc(C(=O)NCC3CCCO3)cs2)cc1 (configuration not stated)
  1	x	97	x	i	x	x
Cc1ccccc1C(OCCN(C)C)C1CCCCC1 (configuration not stated)
  0.82	73	102	0.4	i	8	9
CCCOc1cccc(NC(=O)OC2CCN(C)CC2)c1
  0.82	85	107	-0.6	i	0	8
COc1ccc(S(=O)(=O)N(c2onc(C)c2Cl)S(=O)(=O)c2ccc(OC)cc2)cc1
  0.89	x	51	-2.0	i	-17	x
CCCCN(C(=O)Cn1nnc2ccccc21)C(C(=O)NCCOC)c1ccc(OC)cc1OC (configuration not stated)
  1	x	102	x	i	x	x
CCCCC[C@H](O)/C=C/[C@@H]1[C@@H](CCCCCCC(=O)O)[C@@H](O)C[C@H]1O
  0.87	114	102	-0.9	i	-1	18
COc1cc(-c2nc3ccccn3c2/N=C/c2cccc(OC)c2O)ccc1O
  1.1	71	107	x	i	2	36
C=CCN1C(=O)C(CC(=O)Nc2ccccc2)N(Cc2ccccn2)C1=S (configuration not stated)
  1	120	104	x	i	-2	0
COc1cccc(-c2nc(N3CC(C)CC(C)C3)c3ccccc3n2)c1O (configuration not stated)
  x	92	103	-1.3	x	5	46
NC(=O)Cc1ccc(C(=O)c2ccccc2)s1
  0.9	x	94	x	i	-5	x
CC(=O)Nc1ccc(S(=O)(=O)Nc2nc3ccccc3s2)cc1
  0.94	64	101	0.9	i	2	-31
CC(=O)c1cc(-c2ccc(F)cc2)n(CC(=O)NCc2cccs2)c1C
  0.95	x	99	-1.5	i	-7	x
CC1(C)Oc2ccc3ccc(=O)oc3c2C[C@H]1O
  0.94	x	99	x	i	x	x
CC(=O)Nc1ccc(SCC(=O)OCC(=O)NC(=O)NCc2ccco2)cc1
  x	x	106	-2.4	x	-10	x
O=C(CSCc1nc2c(nnn2Cc2ccc(F)cc2)c(=O)[nH]1)Nc1cccc(C(F)(F)F)c1
  0.95	x	103	x	i	-2	x
O=C(Nc1ccccc1N1CCOCC1)c1cc(Br)c(Br)s1
  0.95	x	97	x	i	-2	x
CCCn1cc(CN2CCCC(C(=O)c3cccc(OC(C)C)c3)C2)c(C)n1 (configuration not stated)
  1	234	107	x	i	-1	30
COc1ccc(C(=O)NCc2ccc3c(c2)cc(C)n3C)cc1OC
  0.8	122	117	x	i	-3	-14
Cc1ccccc1COc1ccc2oc(C)c(C(=O)O)c2c1
  0.95	x	107	x	i	x	x
O=C1c2ccccc2C(=O)N1CCc1csc(-c2cccc(F)c2)n1
  0.72	124	100	0.7	i	-2	18
COc1ccc(C(=O)Nc2ccc(S(=O)(=O)Nc3onc(C)c3C)cc2)c(OC)c1
  1	x	98	x	i	1	x
COCCNC(=O)C(c1cccc(OC)c1)N(Cc1cccs1)C(=O)Cn1nnc2ccccc21 (configuration not stated)
  1.1	43	103	0.7	i	-3	-67
CC/C(=N\O)C(C)(C)/[N+]([O-])=C/c1ccc(Br)cc1
  1.1	88	100	-3.2	i	-9	6
CCOC(=O)Cn1nc(C)c([N+](=O)[O-])c1C
  0.97	120	96	x	i	1	-107
CNC(=O)COc1cccc(C(=O)NCc2ccccc2)c1
  1.1	x	114	-0.3	i	-8	x
C[C@@H](C(=O)N1CCN(C(=O)OC(C)(C)C)CC1)n1cc(-c2cn([C@@H](C)C(=O)N3CCN(C(=O)OC(C)(C)C)CC3)nn2)nn1
  1.1	x	103	x	i	x	x
Cc1ccc(CSCCNC(=O)c2ccc(C)cc2)cc1
  0.95	186	109	x	i	-2	-20
CC1CCN(C(c2ccc(N(C)C)cc2)c2nnnn2C(C)(C)C)CC1 (configuration not stated)
  0.96	114	113	-1.5	i	-16	-8
O=C(Cc1coc2ccc3ccccc3c12)Nc1nccs1
  1.1	91	97	0.9	i	3	17
CCNC(=O)CC1C(=O)N(c2ccc(F)cc2)C(=S)N1CCc1ccncc1 (configuration not stated)
  0.94	x	101	x	i	5	x
COCCNS(=O)(=O)c1cc(Br)ccc1OC
  0.93	96	108	-2.6	i	5	26
O=C(COC(=O)C1CC(=O)N(Cc2ccccc2)C1)Nc1ccccc1F (configuration not stated)
  0.89	x	117	x	i	2	x
Cn1nnnc1SCC(=O)NCc1cc([N+](=O)[O-])ccc1O
  0.92	x	102	x	i	-2	x
Cc1c(Cl)cnc(NC(=O)COC(=O)c2ccc(S(=O)(=O)NCc3ccco3)cc2)c1Cl
  1.2	x	192	-1.0	i	-3	x
Cc1ccc2nc(-c3ccc(NC(=O)c4ccco4)cc3)[nH]c2c1
  0.76	140	95	-0.8	i	-3	67
CCCOc1ccc(N2CC(C(=O)NC(C)C)CC2=O)cc1 (configuration not stated)
  0.7	x	98	-0.6	i	-5	x

Going on with the list.
Below each SMILES: HSV augment primary fold	Insulin prom inh cell count	RGS16-Gao HTS	GALR2 agonist	HSV augment	PKD1 kinase inh	Insulin prom inh
COC(C(=O)Nc1cccc(F)c1)c1ccccc1 (configuration not stated)
  0.83	x	102	-1.1	i	12	x
CCCCCCCCCC(=O)NNC(=O)c1c(O)c2ccccc2n(CC)c1=O
  0.93	96	111	x	i	-6	36
CCOc1ccc(-n2cc(C(=O)Nc3cccc(OC)c3)c3cc(OC)c(OC)cc3c2=O)cc1
  1	158	102	0.0	i	-5	35
O=C(O)c1ccccc1C1=Nc2ccc(O)cc2Oc2cc(O)ccc21
  x	79	96	-0.1	u	-1	44
CCCc1nc(SCC(=O)N2CCCC2)c2ccccc2n1
  0.7	x	99	-0.1	i	0	x
CN(Cc1cccnc1)C(=O)CC1C(=O)NCCN1Cc1ccc(-c2ccccc2)cc1 (configuration not stated)
  0.61	92	103	x	i	0	-100
O=C(Nc1ccc2c(c1)oc1ccccc12)C1CC1
  0.78	x	102	-2.0	i	5	x
COc1ccc(-n2nnnc2SCC(=O)NCc2cccs2)cc1
  1	49	47	x	i	11	-13
COC(=O)CSc1nccc(-c2ccc(F)cc2)c1C#N
  0.86	x	97	x	i	-9	x
COc1ccc(NS(=O)(=O)c2ccc(Cl)c(C(=O)O)c2)cc1S(=O)(=O)N1CCCCC1
  0.95	121	97	x	i	-3	29
CCOc1ccc(-n2c(C)cc(/C=N/Nc3nc(C)cc(=O)[nH]3)c2C)cc1
  0.85	x	103	x	i	x	x
CCn1c(=NC(=O)CSC(C)=O)sc2ccccc21
  0.96	57	100	-1.3	i	-9	-46
O=C1C(=O)N(Cc2cccc([N+](=O)[O-])c2)c2ccccc21
  x	95	109	0.7	x	-1	-25
COc1ccccc1CN(C)C(=O)C1(c2ccc(Cl)cc2)CC1
  1.1	x	100	-1.0	i	-1	x
O=C(CSc1nc(-c2ccccc2Cl)ns1)NCc1ccc2c(c1)OCO2
  1.2	x	198	-0.9	i	-13	x
Cc1ccc(CNC(=O)/C=C/C(=O)O)cc1
  1	x	98	x	i	-2	x
COc1ccc(CNc2nc3ccccc3n2CCN2CCCCC2)c(OC)c1
  1	x	145	-1.7	i	-8	x
COc1ccccc1/C=N/NC(=O)CSc1cc(C)nc2ccccc12
  0.77	94	103	x	i	-10	41
O=C(NCc1ccc(-c2nc3ccccc3s2)cc1)c1cc2ccccc2o1
  1.3	x	76	0.2	i	-1	x
Fc1cc(NC(=S)NCc2ccc(CNC(=S)Nc3ccc(Cl)c(F)c3)cc2)ccc1Cl
  0.87	x	102	x	i	x	x
COc1ccc(CN2C(=O)c3c(c(C)n(C)c3C)C2C(=O)NC2CCC(C)CC2)cc1 (configuration not stated)
  1	88	98	x	i	-6	15
Cc1cccc(Nc2nnc(SCC(=O)NC(=O)Nc3ccc4c(c3)OCCO4)s2)c1
  0.98	62	47	-0.4	i	-9	-19
O=[N+]([O-])c1ccc(OCC(O)CN(C2CCCCC2)C2CCCCC2)cc1 (configuration not stated)
  0.88	x	102	-2.3	i	-12	x
CC(C)c1nc(=S)n(-c2ccccc2)[nH]1
  0.99	81	94	0.7	i	1	38
CN(C)C(=O)COc1ncnc2scc(-c3ccc(F)cc3)c12
  0.94	110	99	x	i	-4	33
CCOC(=O)C(Oc1ccc2c(-c3ccc(OC)cc3)cc(=O)oc2c1C)c1ccccc1 (configuration not stated)
  1	144	98	1.6	i	2	4
Nc1c(C(=O)c2ccco2)oc2ccccc12
  0.89	x	96	x	i	5	x
c1ccc2c(Nc3nncs3)c3ccccc3nc2c1
  0.84	x	95	x	i	x	x
O=C(O)c1cc2ncc(-c3[nH]ncc3[N+](=O)[O-])cn2n1
  1	x	102	x	i	-6	x
COc1cc(-c2cc(-c3ccc(O)cc3)nc(N)c2C#N)ccc1O
  0.79	172	103	x	i	7	-49
O=C(CSc1nc2ccc(Cl)cc2[nH]1)NCCc1ccccc1
  0.82	111	99	-0.6	i	5	7
O=C(CN1CCN(CC(=O)Nc2ccccc2F)CC1)Nc1ccc2c(c1)OCCO2
  0.9	164	108	x	i	6	48
CCC(C)C(NC(=O)c1ccc(Cl)cc1Cl)C(=O)O (configuration not stated)
  0.92	151	102	-1.4	i	-2	50
CCOC(=O)N1CCC(N2C(=O)c3ccccc3C2Nc2ccc(S(=O)(=O)N3CCOCC3)cc2)CC1 (configuration not stated)
  0.92	x	100	x	i	-3	x
O=C(CCc1n[nH]c(=O)[nH]c1=O)N/N=C/c1ccc(Br)o1
  1.1	x	97	x	i	0	x
CCNc1ccc(C(=O)O)cc1N
  1.1	169	93	0.4	i	-1	27
O=C(NCC1CCN(c2ccc(S(=O)(=O)N3CCOCC3)cc2)CC1)c1cccc(Cl)c1
  0.88	106	102	-0.2	i	3	12
O=C(COc1ccccc1F)N1CCN(S(=O)(=O)/C=C/c2ccccc2)CC1
  1	96	56	0.1	i	-10	-26
CCc1ccc2oc(-c3cc(N)cc(C)c3O)nc2c1
  0.43	87	102	-1.8	i	-2	-182
COc1ccccc1C(=O)OCn1nnc2ccccc2c1=O
  0.84	x	101	x	i	x	x
